# Assay outcomes deposited in PubChem BioAssay by Johns Hopkins Ion Channel Center.
# KCNQ2 pot: potentiators of rat KCNQ2 potassium channel | Potassium voltage-gated channel subfamily KQT member 2 (Rattus norvegicus), O88943 | CHO-K1 KCNQ2, FluxOR thallium flux fluorescence; active compounds read high | B-score at 10 µM | actives 0.54% (n = 310,000);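 active = fluorescence ratio B-score at least 3 SD of library B-scores, with initial fluorescence B-score within 3 SD, cut at about 5.3 in these data; same plate scores as AID 2156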;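 note: B-score of peak minus minimum over baseline fluorescence ratio after K+ and Tl+ stimulus; positive B-score means potentiation of KCNQ2 with more thallium influx and brighter signal; only the inactives scoring about 0 or higher are listed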
# Target sequence (O88943 whole entry, looked up): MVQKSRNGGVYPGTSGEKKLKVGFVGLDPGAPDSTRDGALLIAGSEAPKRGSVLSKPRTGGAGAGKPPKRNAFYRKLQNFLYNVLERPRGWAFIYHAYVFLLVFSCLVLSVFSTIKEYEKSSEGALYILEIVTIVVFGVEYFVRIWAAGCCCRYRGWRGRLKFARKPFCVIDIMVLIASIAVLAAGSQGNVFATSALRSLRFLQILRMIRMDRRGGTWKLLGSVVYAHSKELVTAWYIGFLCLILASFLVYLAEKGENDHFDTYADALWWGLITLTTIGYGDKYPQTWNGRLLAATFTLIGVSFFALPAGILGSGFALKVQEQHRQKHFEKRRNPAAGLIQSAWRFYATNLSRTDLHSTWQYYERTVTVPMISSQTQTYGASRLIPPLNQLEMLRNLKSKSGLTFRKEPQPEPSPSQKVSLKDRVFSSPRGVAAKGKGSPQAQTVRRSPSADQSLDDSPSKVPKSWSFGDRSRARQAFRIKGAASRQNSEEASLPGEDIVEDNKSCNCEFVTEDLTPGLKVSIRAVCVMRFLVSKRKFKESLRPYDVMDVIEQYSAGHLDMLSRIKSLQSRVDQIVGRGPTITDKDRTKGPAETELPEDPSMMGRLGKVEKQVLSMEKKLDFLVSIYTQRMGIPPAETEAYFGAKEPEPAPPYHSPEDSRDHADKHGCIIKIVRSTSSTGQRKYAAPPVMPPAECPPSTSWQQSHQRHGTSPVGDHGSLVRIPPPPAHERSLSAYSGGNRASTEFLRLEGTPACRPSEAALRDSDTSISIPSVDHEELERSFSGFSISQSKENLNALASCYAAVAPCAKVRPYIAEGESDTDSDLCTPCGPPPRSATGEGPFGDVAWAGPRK
# KCNQ2 pot baseline: recorded beside KCNQ2 pot, whose call it bears; B-score; compound at 10 µM; measured here: initial fluorescence intensity artifact check;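 brightness before thallium and not channel activity; 0 = typical well and far values either way flag optical interference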
# * marks the source's active call; other numbers are inactive results; . = no result given. These rows are one share of the data; count on the stated rates, not on these rows.
# The line under a structure holds: KCNQ2 pot, KCNQ2 pot baseline
> Cc1c(O[C@@H]2O[C@H](CO)[C@@H](O)[C@H](O)[C@H]2O)ccc2c1oc(=O)c1ccccc12
    0.16, 0.01
> CC(=O)CSc1ncnc2c1oc1ccccc12
    1.6, -0.84
> CCC1(C)OC(=O)NN(c2ccc(C)cc2)C1(C)O (stereo unspecified)
    0.02, 0.79
> Nc1cccc(/C=C/c2ccncc2)c1
    0.66, 0.55
> Cc1ccc(S(=O)(=O)Nc2ccc(Cl)cn2)cc1
    0.01, -2.5
> O=C(COc1ccc(S(=O)(=O)N2CCCC2)cc1)N1CCCC1
    1.3, -1.2
> CCN(CC)c1nc2nonc2nc1N(CC)CC
    0.25, -0.53
> O=S(=O)(c1cccs1)N1CN(Cc2cccs2)c2nc3ccccc3nc21
    0.02, 2.7
> CCOC(=O)C(NC(=O)Nc1ccc(Cl)cn1)(Oc1ccccc1)C(F)(F)F (stereo unspecified)
    1.1, 0.01
> CC(=O)NC1(C(Cl)(Cl)Cl)Oc2ccccc2O1
    0.76, 1.4
> COCCCN1C(=O)CC(C(=O)OC)=C1C
    0.96, 0.87
> Cc1ccc(C)c(S(=O)(=O)N2CCCC2CNC(=O)C(=O)NCc2ccco2)c1 (stereo unspecified)
    0.01, -1.1
> C=C(C)c1cccc(C(C)(C)NC(=O)N2CCN(c3ccc(OC)cc3)CC2)c1
    0.49, 0.91
> O=C(COC(=O)/C=C/c1ccco1)Nc1ccc(F)cc1Cl
    1.5, -1.8
> O=c1[nH]c(=S)[nH]c2nc(-c3cccs3)cc(C(F)(F)F)c12
    1.7, -0.45
> O=[N+]([O-])c1ccccc1CCc1cnc(Cl)s1
    0.25, -1.3
> CC1CCN(C(=O)CCCC(=O)O)CC1
    0.94, 1.3
> O=[N+]([O-])c1ccc(-c2ccc(/C=N/Nc3nc(NCc4ccccc4)nc(N4CCOCC4)n3)o2)cc1
    0.02, 1.2
> CCCN1CCN(CCCNC(=O)Cn2nc(C)n3c(cc4cc(F)ccc43)c2=O)CC1
    0.11, 1.5
> CC1(C)Cc2c(cnn2-c2ccccc2)C(NC(=O)CCN2CCCC2=O)C1 (stereo unspecified)
    1, 0.58
> CCOc1ccccc1NC(=O)Cn1nnc(C(=O)Nc2ccc(C)cc2)c1N
    1.1, -0.05
> COc1ccc(C(C(=O)NC2CCCCC2)N(C(=O)c2ccco2)c2ccc(-n3cnnn3)c(C)c2)cc1 (stereo unspecified)
    2, -0.1
> CCCCC(NC(=O)Cc1c(C)c2cc3c(-c4ccccc4)coc3c(C)c2oc1=O)C(=O)O (stereo unspecified)
    0.95, -0.04
> Nc1nc(SCc2ccc(Cl)c(Cl)c2)n[nH]1
    0.73, 2.6
> O=C(COc1ccccc1)Nc1nnc(-c2ccccc2Cl)o1
    0.65, 0.53
> CC(=O)c1nnn(-c2cccc(C#N)c2)c1C
    1.7, -1.1
> Cc1ccc(C)c(-n2c(-c3ccncc3)n[nH]c2=S)c1
    1.2, -0.67
> O=C(NCCc1ccc(F)cc1)N1CCOCC1
    0.52, 2.1
> O=C(Nc1nnc(-c2ccccc2F)s1)C1CCN(S(=O)(=O)c2ccc(Cl)cc2)CC1
    0.61, 0.17
> O/N=C/c1cc(Br)cc(Br)c1OCc1ccccc1
    -5.6, .
> O=C(COc1ccc(/C=N/NC(=O)c2ccncc2)cc1)Nc1cccc([N+](=O)[O-])c1
    0.41, 2.3
> Cc1ccc(OCC(=O)NS(=O)(=O)c2ccccc2)cc1
    0.55, 0.19
> O=C(COC(=O)C1CCN(c2ccc(C(F)(F)F)cn2)CC1)NCCc1ccccc1
    1.9, 0.44
> C/C(CCCO)=N/Nc1ccc([N+](=O)[O-])cc1[N+](=O)[O-]
    2.5, 0.15
> COC(=O)COc1cccc(NC(=O)c2ccc(Cl)cc2)c1
    0.25, -0.68
> Cc1c(C)c2ccc(OCC(=O)N3CCC(C(=O)O)CC3)cc2oc1=O
    1.4, 0.63
> O=C(NC1CCCc2ccccc21)C1CCCC1 (stereo unspecified)
    0.2, -0.02
> COCCNC(=O)CN(C(=O)Cn1nnc2ccccc21)c1cc(C)cc(C)c1
    0.31, 0.85
> CCOCCCN(C(=O)c1snc(C(N)=O)c1N)C(C(=O)NC1CCCC1)c1ccc(O)c(OC)c1 (stereo unspecified)
    0.03, -2.2
> CCO[C@H]1OC(C(=O)O)=C[C@@H](c2cn(C(C)=O)c3ccccc23)[C@@H]1CCCO
    0.38, -0.35
> CNC(=O)c1ccc2nc(NC(C)=O)sc2c1
    0.57, -0.71
> CCOc1ccc2nc(NC(=O)CSc3ccccc3)sc2c1
    0.5, 1.8
> Cc1ccc(C)c(CN2C(=O)NC3(CCCCCC3)C2=O)c1
    1.2, 1.5
> CCCNC(=O)c1ccc(N2CCC3(CC2)CC(c2ccccc2)=NO3)c([N+](=O)[O-])c1
    1.3, 0.9
> CC1CCN(c2nc3ccccn3c(=O)c2C=O)CC1
    0.12, 0.22

# Filtered by structure: the compounds so far containing a CF3 group.
# The line under a structure holds: KCNQ2 pot, KCNQ2 pot baseline
> CCOC(=O)C(NC(=O)Nc1ccc(Cl)cn1)(Oc1ccccc1)C(F)(F)F (stereo unspecified)
    1.1, 0.01
> O=c1[nH]c(=S)[nH]c2nc(-c3cccs3)cc(C(F)(F)F)c12
    1.7, -0.45
> O=C(COC(=O)C1CCN(c2ccc(C(F)(F)F)cn2)CC1)NCCc1ccccc1
    1.9, 0.44

# Additional structures follow.
# The line under a structure holds: KCNQ2 pot, KCNQ2 pot baseline
> Cc1ccc(NC(=S)Nc2cc(-c3ccccc3)[nH]n2)cc1Cl
    0.56, -1.3
> CCCCCC(=O)Nc1cccc(C2=NOC3(C2)C[C@H](C(N)=O)N(C(=O)c2ccccc2C(=O)c2ccccc2)C3)c1 (stereo partly specified)
    0.59, -0.58
> O=C(CC1C(=O)NCCN1Cc1cccc(Oc2ccccc2)c1)NCC1CCOCC1 (stereo unspecified)
    0.31, 0.29
> CCc1ccc(C(C)NC(=O)c2ncn[nH]2)cc1 (stereo unspecified)
    1.7, -0.41
> Cc1ccc(C(=O)ON=C2CCN(c3ccc([N+](=O)[O-])cc3)CC2)cc1
    0.15, -0.58
> Cc1nc(SCC(=O)N2CCN(C(=O)c3ccco3)CC2)c2c(C)c(C)sc2n1
    1.1, -1.2
> O=C1NCCCC1C(=O)N/N=C/c1cccc(Cl)c1 (stereo unspecified)
    2.6, -0.15
> COc1ccc(CNC(=O)C2CCCN(S(=O)(=O)c3ccc(Br)s3)C2)cc1 (stereo unspecified)
    1.4, 0.01
> Cn1c(CN2CCCC2)nc2cc(NC(=O)COc3ccc([N+](=O)[O-])cc3)ccc21
    1, 0.62
> Cc1cc(C)cc(NC(=O)CSc2nncn2-c2ccccn2)c1
    1.4, 0.41
> COc1ccc(-c2nnc(NC(=O)c3c(OC)cccc3OC)s2)cc1
    0.16, 2.2
> Cc1c(NC(=O)/C(C#N)=C/c2ccc(-c3cc(Cl)ccc3Cl)o2)c(=O)n(-c2ccccc2)n1C
    1.6, -1.3
> Cc1ccc(OCCOC(=O)CCc2nc3ccccc3c(=O)[nH]2)cc1
    0.94, -0.18
> CCN(C(=O)CSc1nc2ccccc2o1)c1c(N)n(Cc2ccccc2)c(=O)[nH]c1=O
    0.04, 1.1
> N/C(=N\OC(=O)c1ccco1)c1cccc([N+](=O)[O-])c1
    0.09, 1.6
> Cn1c(=O)oc2cc(S(=O)(=O)NC3CCCCC3)ccc21
    0.6, 1.6
> CN1N=C(C(=O)N2CCc3c([nH]c4ccccc34)C2c2c(F)cccc2Cl)CCC1=O (stereo unspecified)
    0.77, 0.03
> O=[N+]([O-])c1cccc(NC(=S)Nc2nc(-c3ccc(Cl)cc3Cl)cs2)c1
    0.39, -2.1
> CS(=O)(=O)c1ccc2nc(NC(=O)c3ccco3)sc2c1
    0.64, -0.51
> CCNC(=O)C/C(C)=N/NC(=O)C(=O)Nc1ccc(CC)cc1
    1.2, 0.36
> CCOC(=O)c1sc(NC(=O)C(CC)Sc2nccn2C)nc1C (stereo unspecified)
    1.4, -0.63
> O=C(NCCC1=CCCCC1)c1ccc2c(=O)n3c(nc2c1)CCCCC3
    1.6, -0.92
> CCCCc1ccc(NC(=O)CSc2nnc(CNC(=O)c3ccco3)o2)cc1
    0.68, -0.73
> O=C(O)c1sccc1OCc1ccccc1
    1.1, 2.9
> COc1ccc(S(=O)(=O)N(C)CC(=O)N2CCCCC2)cc1Cl
    1.2, 1
> COc1cc(NC(C)CCCN)c2ncccc2c1 (stereo unspecified)
    0.48, -0.4
> Cc1cc(=O)[nH]c(SCC(=O)NCCOc2ccccc2)n1
    0.05, 0.14
> COc1ccc(CNCC(O)(c2ccccc2)c2ccc(F)cc2)cc1OC (stereo unspecified)
    0.98, -1.9
> Cc1ccc(NC(=O)c2cccc3ccccc23)cc1
    0.71, -0.02
> COCCCNC(=S)NNC(=O)c1cc(-c2ccncc2)nc2ccccc12
    1.4, -0.04
> O=C(OCCN=C1NS(=O)(=O)c2ccccc21)c1ccncc1
    0.93, -1.4
> Cc1c(NC(=S)NC(=O)c2ccc(COc3ccccc3)cc2)cccc1C(=O)O
    3.9, -2.7
> CCN(CC)CCn1c2c(c(SCC(=O)Nc3ccc4c(c3)OCO4)nc1=O)CCC2
    1.9, -0.14
> CCc1nnc(NC(=O)CCNC(=O)c2ccccc2Cl)s1
    0.07, 3
> O=[N+]([O-])c1ccccc1N=Nc1ccc(O)cc1
    0.06, 1.2
> Cc1c(OC(C)C(=O)NCC2CCC(C(=O)O)CC2)ccc2c1oc(=O)c1ccccc12 (stereo unspecified)
    0.06, 0.59
> Cc1cc(C)c2c(=O)[nH]n(C3CCCCCC3)c2n1
    1.6, 0.27
> CN1CCN(c2nc(-c3cccnc3)nc3ccccc23)CC1
    1.7, -1.8
> CC(C)(O)[C@H](O)COc1c2occc2cc2ccc(=O)oc12
    1.4, -0.58
> CN(C)CC(C)(C)CNS(=O)(=O)c1cccc2nsnc12
    1, 2.1
> CC(O)[C@H]1CNC(=O)C(=O)N1CC1(c2ccccc2)CC1 (stereo partly specified)
    3.9, 0.37
> CCC1COCCS(=O)(=O)N1Cc1ccccc1F (stereo unspecified)
    1.9, 0.02
> O=C(NCc1ccco1)C1CCN(S(=O)(=O)N2CCOCC2)CC1
    0.68, -1.8
> O=c1c2c(-c3cccs3)csc2ncn1-n1cccc1
    0.9, -0.03
> CC1CCCCN1C(=O)CSc1nnc(-c2c[nH]c3ccccc23)o1 (stereo unspecified)
    0.34, 0.27

# Reformatted with values ahead of the structure: part of the list above.
KCNQ2 pot | KCNQ2 pot baseline | structure
1.4 | -0.58 | CC(C)(O)[C@H](O)COc1c2occc2cc2ccc(=O)oc12
1 | 2.1 | CN(C)CC(C)(C)CNS(=O)(=O)c1cccc2nsnc12

# The results go on:
# The line under a structure holds: KCNQ2 pot, KCNQ2 pot baseline
> CSc1nsc(SC)c1CO
    0.02, 0.21
> CCN(CC)C(=O)C1CCN(S(=O)(=O)c2ccc(-n3cnnn3)cc2)CC1
    1.1, 0.78
> Cc1cn2c(-c3cccnc3)nnc2s1
    1.2, 1.1
> O=C(CCNC(=O)c1ccc(Br)cc1)Nc1cccc(S(=O)(=O)N2CCCC2)c1
    1.5, 0.62
> CCNC(=O)CCSc1nnc(-c2ccncc2)o1
    0.54, 1.4
> CCOc1ccc(OCc2cccc(C(=O)N3CCCC3)c2)cc1
    0.4, 0.05
> Oc1ccc(/C=N/n2c(-c3ccco3)csc2=Nc2cccnc2)c(O)c1
    0.52, -1.2
> Cc1cccnc1NC(=O)c1ccc(NS(=O)(=O)c2ccc3[nH]c(=O)[nH]c3c2)cc1
    0.83, 0.97
> CCc1c(C(=O)N/N=C/c2ccc(OCc3ccc(F)cc3)c(OC)c2)nnn1-c1nonc1N
    2.4, -2.9
> CCOCCCNS(=O)(=O)c1ccc(NC(=O)c2ccccc2)cc1
    0.33, -0.07
> CC(=O)OCC1=C(C(=O)O)N2C(=O)C(NC(=O)Cn3nc(C(F)F)c(Cl)c3C)C2SC1 (stereo unspecified)
    0.09, 1.1
> COc1ccc(N2CCN(C(=O)c3ccc4c(c3)OCO4)CC2)cc1
    1.5, 1
> COc1ccc(OC)c(NC(=O)CSc2ccc3nnc(-c4cccnc4)n3n2)c1
    0.27, 1.4
> O=C(COC(=O)c1cc(=O)[nH]c2ccccc12)NC1CCCCCCC1
    1.3, 0.13
> O=c1[nH]c(CSc2ncnc3sc(-c4ccccc4)cc23)nc2ccccc12
    1.1, -1
> CCOc1ccc(-c2cccc(NC(=O)c3ccco3)c2)nn1
    1.6, -0.67
> c1cc2c(cc1-c1[nH]ncc1CN1CC3C[C@@H]4CC1C[C@H](C3)C4)OCO2
    0.43, -0.57
> Cc1c(C(=O)NCc2ccc3c(c2)OCO3)oc2ccc(S(=O)(=O)N3CCC(C)CC3)cc12
    1.3, -0.31
> CCOc1cc2[nH]c(=O)n(CCCCC(=O)NC3CCCCCC3)c(=O)c2cc1OCC
    0.33, 1.6
> COc1ccc(Oc2cc(C)nc(Cl)n2)nn1
    0.99, -0.56
> O=C(Nc1cccc(F)c1)N1CCN(C/C=C/c2ccccc2)CC1
    2, -0.34
> Cc1ccccc1NC(=O)NC1(C(=O)N2CCC(C(N)=O)CC2)CCCCC1
    1, 0.88
> O=C(CCS(=O)(=O)c1cccc2nsnc12)N1CC(=O)N(CCc2ccccc2)C(=O)C1
    0.5, -1.9
> O=C(N[C@@H](Cc1ccccc1)C(=O)OCc1ccccc1)c1nc[nH]c1C(=O)N[C@@H](Cc1ccccc1)C(=O)OCc1ccccc1
    0.76, -2.8
> COc1ccc(OCCn2c(N)nc3ccccc32)cc1
    0.8, -0.69
> CCCCNC(=O)c1c(O)c2cccc3c2n(c1=O)CCC3
    0.9, -0.71
> O=C(CSc1nc2ccccc2s1)Nc1ccc(C(=O)O)cc1
    0.93, 1.4
